YB-1 expr inh – YB-1 expression inhibition; U2OS, qRT-PCR YB-1 vs CDIP delta delta Cp, 16 h; hits give high values; zero = DMSO, each unit about twofold; delta delta Cp (YB-1 minus CDIP) (test concentration not listed); actives 0.37% (n = 30,000); AID 434959;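 active = delta delta Cp rounded down to an integer at or above 3, about 3 SD of DMSO wells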;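 also: higher means less YB-1 transcript or more CDIP transcript relative to DMSO; stock transfer was 100 nL into about 100 µL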
MITF inhib – inhibitors of MITF; TRPM1 promoter luciferase, luminescence, 24 h; inhibition, % (no concentration beside the values); actives 0.28% (n = 37,000);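 active = most replicates at 85% or more, or half of them and the mean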;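 also: human melanocyte line stably carrying TRPM1 promoter luciferase reporter; 0% = vehicle wells and 100% = a positive control; the first replicate is given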
PD-1 reverse act – activators reversing PD-1 mediated T-cell inhibition; primary human CD4 T cells, PD-L1 beads, CellTiter-Glo 96 h; activation, % (concentration not given with the values); 29,000 tested, under 10 active; AID 2316;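 active = replicate mean of 50% or more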;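 also: 0% = median vehicle wells and 100% = positive control; 100 nL library stock added to about 50 µL; numbers are from one replicate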
Shh pathway inh – blocks Sonic Hedgehog signaling; actives 2.1% (n = 22,000); inhibition, % (no concentration beside the values); AID 2313; Shh-LIGHT2 Gli-luciferase reporter, 30 h;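 active = replicate mean of 65% or more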;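 also: pathway switched on by Shh-conditioned medium diluted 1 in 25 in low serum; 100 nL library stock added to about 40 µL; 0% = median of neutral wells and 100% = positive control level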
Starred values were filed as active, the others as inactive; / = no result given; & = joins results of further samples. A portion of the library. The share of hits here may be higher or lower than overall.

entry	canonical_smiles	PD-1 reverse act	YB-1 expr inh
1	CC(C)NC(=O)N(C)C[C@@H]1Oc2ccc(NC(=O)Cc3ccccc3)cc2C(=O)N([C@@H](C)CO)C[C@H]1C	1.1	-0.59
2	CCC(Sc1nnc(-c2ccc(NC(C)=O)cc2)n1C)C(=O)Nc1ccc(Br)cc1 (configuration not stated)	-1.4	/
3	Cc1cc(N(CC(=O)O)S(C)(=O)=O)ccc1Br	3.6	/
4	C[C@H]1CN([C@@H](C)CO)C(=O)Cc2cc(NS(=O)(=O)c3ccc(F)cc3)ccc2O[C@H]1CN(C)S(=O)(=O)c1ccc(Cl)cc1	0.4	-0.045
5	C[C@H]1CN([C@@H](C)CO)C(=O)c2cccc(NC(=O)Nc3ccccc3)c2O[C@H]1CN(C)Cc1ccc(Oc2ccccc2)cc1	-1.0	0.061
6	C[C@@H]1CN([C@@H](C)CO)C(=O)c2cccc(NC(=O)c3nc4ccccc4s3)c2O[C@H]1CN(C)C(=O)Nc1cccc2ccccc12	-1.1	-0.11
7	C[C@H](CO)N1C[C@H](C)[C@@H](CN(C)S(=O)(=O)c2ccc(Cl)cc2)Oc2ccc(NC(=O)Cn3cnnn3)cc2C1=O	1.7	-0.22
8	CC(=O)Nc1ccc(NC(=O)CSc2nnc3c4cc(Br)ccc4n(C)c3n2)cc1	-3.3	/
9	O=C(NCCO)c1nc(NCCO)c2ccccc2n1	2.7	/
10	C[C@@H]1CCCCO[C@@H](CN(C)C(=O)Nc2cccc3ccccc23)[C@@H](C)CN([C@H](C)CO)C(=O)c2cc(NS(=O)(=O)c3ccccc3)ccc2O1	-3.0	0.34
11	CCC(Sc1ccccn1)C(=O)Nc1ccc(Br)cc1 (configuration not stated)	0.0	/
12	C[C@@H]1CN([C@H](C)CO)C(=O)c2cccc(NC(=O)C3CCCCC3)c2O[C@@H]1CN(C)CC1CC1	0.8	-0.13
13	CC(C)NC(=O)Nc1ccc2c(c1)C(=O)N([C@H](C)CO)C[C@H](C)[C@@H](CN(C)C(=O)Nc1ccc(C(F)(F)F)cc1)O2	-2.1	0.76
14	COc1ccc(S(=O)(=O)N(C)C[C@H]2Oc3c(NC(=O)Nc4ccc(F)cc4)cccc3C(=O)N([C@@H](C)CO)C[C@H]2C)cc1	-1.9	0.16
15	Cc1ccnc(N=Cc2c(C)[nH]n(-c3ccccc3)c2=O)c1	0.0	0.28

entry	Shh pathway inh	MITF inhib
1	-43	-5
2	/	-2
3	/	-27
4	14	-5
5	-42	10
6	-97	7
7	/	3
8	/	36
9	/	-1
10	21	29
11	/	-13
12	-38	-1
13	-61	-9
14	-1	61
15	-4	3

A second format for some results above:
#13 CC(C)NC(=O)Nc1ccc2c(c1)C(=O)N([C@H](C)CO)C[C@H](C)[C@@H](CN(C)C(=O)Nc1ccc(C(F)(F)F)cc1)O2
  PD-1 reverse act: -2.1 | YB-1 expr inh: 0.76 | Shh pathway inh: -61 | MITF inhib: -9

#15 Cc1ccnc(N=Cc2c(C)[nH]n(-c3ccccc3)c2=O)c1
  PD-1 reverse act: 0.0 | YB-1 expr inh: 0.28 | Shh pathway inh: -4 | MITF inhib: 3

#10 C[C@@H]1CCCCO[C@@H](CN(C)C(=O)Nc2cccc3ccccc23)[C@@H](C)CN([C@H](C)CO)C(=O)c2cc(NS(=O)(=O)c3ccccc3)ccc2O1
  PD-1 reverse act: -3.0 | YB-1 expr inh: 0.34 | Shh pathway inh: 21 | MITF inhib: 29

Continuation.
entry	canonical_smiles	PD-1 reverse act	YB-1 expr inh
16	C[C@H](CO)N1C[C@H](C)[C@H](CN(C)C(=O)NC2CCCCC2)Oc2ccc(NS(=O)(=O)c3ccc(F)cc3)cc2CC1=O	/	0.38
17	COC(=O)c1c(NC(=O)COc2ccccc2)sc(C)c1-c1ccccc1	-0.5	/
18	C[C@@H]1CCCCO[C@H](CN(C)C(=O)Cc2ccccc2)[C@@H](C)CN([C@H](C)CO)C(=O)c2cc(NC(=O)C3CCCCC3)ccc2O1	/	-0.25
19	Cc1occc1C(=O)Nc1sc2c(c1C(=O)NCc1cccnc1)CCCC2	-2.8	/
20	COC(=O)COc1cccc(NC(=O)c2ccccc2-c2ccccc2C(=O)O)c1	3.1	/
21	Cc1noc(C)c1NC(=O)N(C)C[C@H]1Oc2ccc(NC(=O)c3ccncc3)cc2CC(=O)N([C@@H](C)CO)C[C@@H]1C	/	0.16
22	C[C@@H]1CN([C@H](C)CO)C(=O)Cc2cc(NC(=O)CCCCCC(=O)Nc3ccccc3N)ccc2O[C@@H]1CN(C)S(=O)(=O)c1ccc(Cl)cc1	0.1	-0.051
23	Cc1ccc(N(C(C)C(=O)Nc2ccc(Oc3ccccc3)cc2)S(C)(=O)=O)cc1C (configuration not stated)	-0.3	/
24	Cc1noc(C)c1NC(=O)N(C)C[C@@H]1Oc2ccc(NC(=O)Nc3ccc4c(c3)OCO4)cc2C(=O)N([C@@H](C)CO)C[C@H]1C	/	0.077
25	COc1ccc(S(=O)(=O)Nc2cccc3c2O[C@@H](CN(C)Cc2ccc(C(=O)Nc4ccccc4N)cc2)[C@H](C)CN([C@@H](C)CO)C3=O)cc1	1.2	-0.25
26	Cc1noc(C)c1NC(=O)N(C)C[C@@H]1Oc2ccc(NS(=O)(=O)c3c(C)noc3C)cc2CC(=O)N([C@H](C)CO)C[C@@H]1C	1.0	-0.18
27	C[C@@H]1CCCCO[C@H](CN(C)C(=O)C2CCCCC2)[C@@H](C)CN([C@H](C)CO)C(=O)c2cc(NC(=O)NC3CCCCC3)ccc2O1	/	-0.13
28	O=C(CC1SC(=NC2CC3C=CC2C3)NC1=O)Nc1ccccc1Cl (configuration not stated)	1.1	-0.011
29	CC(C(=O)Nc1ccc(I)cc1)N(c1ccc(Cl)cc1)S(C)(=O)=O (configuration not stated)	-4.4	/
30	COc1cc2c(c(OC)c1)C(=O)OC(C)C2 (configuration not stated)	1.6	-0.72

entry	Shh pathway inh	MITF inhib
16	12	-26
17	/	-53
18	0	2
19	/	-48
20	/	0
21	0	-7
22	/	2
23	/	41
24	4	5
25	/	6
26	55	-14
27	-44	-4
28	-6	0
29	/	-2
30	-15	1

Next section:
entry	canonical_smiles	PD-1 reverse act	YB-1 expr inh
31	C[C@H](CO)N1C[C@H](C)[C@@H](CN(C)Cc2ccc(-c3ccccc3)cc2)Oc2ccc(NC(=O)Nc3ccc4c(c3)OCO4)cc2C1=O	-0.2	-0.15
32	C[C@H]1CN([C@@H](C)CO)C(=O)c2cccc(NC(=O)CCCCCC(=O)Nc3ccccc3N)c2O[C@@H]1CN(C)CC1CCCCC1	0.8	-0.04
33	COc1cc2c(c3oc(-c4ccccc4)cc(=O)c13)C=CC(C)(C)O2	-1.5	-0.21
34	COc1ccc(NC(=O)Nc2cccc3c2O[C@@H](CN(C)CC2CC2)[C@H](C)CN([C@H](C)CO)C3=O)cc1	/	-0.032
35	C[C@@H]1CN([C@@H](C)CO)C(=O)c2cc(NC(=O)Nc3ccccc3)ccc2O[C@H]1CN(C)Cc1ccccc1	0.7	-0.35
36	C[C@H]1CN([C@@H](C)CO)C(=O)c2cc(NC(=O)CCC(F)(F)F)ccc2O[C@@H]1CN(C)C(=O)Nc1ccc2c(c1)OCO2	-0.7	0.53
37	C[C@@H]1O[C@@H](OC[C@H]2O[C@@H](OCCc3ccc(O)c(O)c3)[C@H](O)[C@@H](O)[C@@H]2OC(=O)/C=C/c2ccc(O)c(O)c2)[C@H](O)[C@H](O)[C@H]1O	0.6	-0.27
38	Cc1ccc(-c2noc(CSc3nnc(-c4cccs4)n3-c3ccccc3)n2)cc1	1.3	/
39	Cn1c(SCc2nc3ccccc3c(=O)[nH]2)nnc1-c1cc2ccccc2o1	4.1	/
40	C[C@@H]1CCCCO[C@@H](CN(C)Cc2ccc(C(F)(F)F)cc2)[C@@H](C)CN([C@H](C)CO)C(=O)c2cc(NC(=O)Nc3cccc4ccccc34)ccc2O1	1.1	-0.31
41	C[C@@H]1CN([C@@H](C)CO)C(=O)Cc2cc(NC(=O)Nc3ccccc3)ccc2O[C@@H]1CN(C)C(=O)Nc1ccccc1	-1.7	0.24
42	COc1ccc(S(=O)(=O)N(C)CC(=O)Nc2ccccc2)cc1Cl	0.9	/
43	C[C@@H]1CN([C@H](C)CO)C(=O)Cc2cc(NC(=O)NC3CCCCC3)ccc2O[C@H]1CN(C)S(=O)(=O)c1ccccc1	/	-0.14
44	Nc1no[n+]([O-])c1-c1ccccc1	-0.3	-0.22
45	COc1ccc(NC(=S)NCCCC2C=NNC2=O)cc1 (configuration not stated)	1.4	0.37

entry	Shh pathway inh	MITF inhib
31	-7	-7
32	/	65
33	6	-31
34	11	10
35	/	-4
36	-17	-3
37	-64	1
38	/	30
39	/	17
40	-24	6
41	12	-7
42	/	4
43	/	-15
44	7	-5
45	-9	-11

(listing goes on)
entry	canonical_smiles	PD-1 reverse act	YB-1 expr inh
46	C[C@H]1CN([C@@H](C)CO)C(=O)c2cc(NS(=O)(=O)c3cn(C)cn3)ccc2O[C@H]1CN(C)Cc1ccc(Cl)c(Cl)c1	-1.6	0.21
47	Cc1noc(C)c1NC(=O)N(C)C[C@@H]1Oc2c(NS(=O)(=O)c3cccs3)cccc2C(=O)N([C@H](C)CO)C[C@@H]1C	2.6	0.46
48	C[C@@H]1CN([C@@H](C)CO)C(=O)c2cccc(NC(=O)Nc3ccccc3)c2O[C@@H]1CN(C)S(=O)(=O)c1ccccc1	-0.3	0.12
49	Cc1ccc(S(=O)(=O)Nc2ccc3c(c2)C(=O)N([C@@H](C)CO)C[C@H](C)[C@@H](CN(C)Cc2ccc(C(=O)Nc4ccccc4N)cc2)O3)cc1	-1.7	-0.23
50	COc1ccc(OC)c(NC(=O)Cn2cc(C(=O)C3CC3)c3ccccc32)c1	-2.7	/
51	C[C@H]1CN([C@@H](C)CO)C(=O)Cc2cc(NC(=O)CCN3CCOCC3)ccc2O[C@H]1CN(C)Cc1ccncc1	/	-0.047
52	C[C@@H]1CCCCO[C@@H](CN(C)S(=O)(=O)c2cn(C)cn2)[C@@H](C)CN([C@H](C)CO)C(=O)c2cc(NS(=O)(=O)c3ccc(Cl)cc3)ccc2O1	1.7	-0.48
53	C[C@@H]1CN([C@H](C)CO)C(=O)Cc2cc(NS(=O)(=O)c3ccc(F)cc3)ccc2O[C@H]1CN(C)Cc1ccc(C(F)(F)F)cc1	-2.9	-0.16
54	Cc1cccc(C)c1OCC(=O)Nc1ccc([N+](=O)[O-])cc1O	-0.2	/
55	C[C@H]1CN([C@@H](C)CO)C(=O)c2cc(NC(=O)Nc3cccc4ccccc34)ccc2O[C@H]1CN(C)S(=O)(=O)c1ccccc1	-0.3	0.055
56	CC(C)(C)C1CCc2c(sc3ncn(CC(=O)NCc4ccco4)c(=O)c23)C1 (configuration not stated)	-0.7	/
57	Cc1cc(C(=O)Nc2cccc3c2O[C@H](CN(C)C(=O)Nc2ccc(C(F)(F)F)cc2)[C@@H](C)CN([C@H](C)CO)C3=O)n(C)n1	0.1	0.22
58	C[C@@H]1CN([C@H](C)CO)C(=O)Cc2cc(NC(=O)CCN3CCOCC3)ccc2O[C@H]1CN(C)S(=O)(=O)c1ccc(Cl)cc1	0.5	-0.31
59	COc1cc(C2NC(=O)NC(c3ccccc3)=C2C(=O)c2ccccc2)cc(I)c1OCC(=O)O (configuration not stated)	-5.5	/
60	COc1cc(NC(=S)NC(=O)C(C)Oc2ccc(Cl)cc2Cl)c(OC)cc1Cl (configuration not stated)	0.9	/

entry	Shh pathway inh	MITF inhib
46	/	-12
47	-100	5
48	3	5
49	/	29
50	/	3
51	1	-6
52	-1	1
53	28	5
54	/	12
55	-30	-35
56	/	-10
57	-29	2
58	-3	-1
59	/	-11
60	/	-22

The results go on.
entry	canonical_smiles	PD-1 reverse act	YB-1 expr inh
61	CCCc1oc(C(=O)O)cc1CN1CCOCC1	-0.6	/
62	CC(C)NC(=O)N(C)C[C@H]1Oc2ccc(NC(=O)Nc3cccc4ccccc34)cc2CC(=O)N([C@@H](C)CO)C[C@@H]1C	/	0.33
63	C[C@@H]1CN([C@H](C)CO)C(=O)c2cccc(NC(=O)C3CC3)c2O[C@@H]1CN(C)Cc1ccncc1	1.3	-0.0037
64	C[C@@H]1CN([C@H](C)CO)C(=O)Cc2cc(NC(=O)C3CCCCC3)ccc2O[C@@H]1CN(C)S(=O)(=O)c1ccccc1	0.5	-0.14
65	COc1ccc(NC(=O)N(C)C[C@@H]2Oc3c(NC(=O)C4CC4)cccc3C(=O)N([C@@H](C)CO)C[C@@H]2C)cc1	/	-0.33
66	COc1ccc(CN(C)C[C@@H]2OCCCC[C@@H](C)Oc3ccc(NC(=O)Cc4ccccc4)cc3C(=O)N([C@H](C)CO)C[C@@H]2C)cc1	-2.1	-0.058
67	O=c1c(O)c(-c2ccc(O)c(O)c2)oc2cc(O)cc(O)c12	2.8&0.5	-0.3&-0.35
68	Cc1noc(C)c1NC(=O)Nc1ccc2c(c1)CC(=O)N([C@@H](C)CO)C[C@@H](C)[C@@H](CN(C)Cc1ccc(Cl)c(Cl)c1)O2	/	-0.18

entry	Shh pathway inh	MITF inhib
61	/	-24
62	-12	3
63	0	-1
64	-39	-6
65	9	-3
66	-6	-11
67	-20&-75	-82&-20
68	0	-8

Screening results (PubChem BioAssay)
